Screening results: PubChem BioAssay, several laboratories
FGF22 binding – shifts melting point of recombinant human FGF22 | Q9HCT0 | recombinant FGF22 thermal shift, SYPRO orange fluorescence; percent of sucrose octasulfate shift, DMSO zero | calls only at 9.99 µM | actives 1.5% (n = 340,000) | AID 651658;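 active = melting point raised past a set limit in the mean and every replicate; inconclusive = no clear call; three in four hits are not shown here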
Target sequence (Q9HCT0 whole entry, looked up): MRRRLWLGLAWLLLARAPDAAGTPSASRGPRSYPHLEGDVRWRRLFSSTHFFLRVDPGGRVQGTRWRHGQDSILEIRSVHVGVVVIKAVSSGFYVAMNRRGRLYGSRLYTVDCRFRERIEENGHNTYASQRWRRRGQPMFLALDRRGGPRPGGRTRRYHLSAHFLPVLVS
HNF4A DNA FP – change in binding of human HNF4 alpha to DNA; actives 0.3% (n = 360,000); P41235; activity change, % at 10 µM; HNF4a-FITC DNA binding, fluorescence polarization, 1 h; in the data active = activity change above about 30%, passing the limit was not always enough;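 also: controls were the assay level and a saturating level of protein; the project sought stronger binding though the title names inhibitors; some compounds called inactive have numbers as strong as hits; positive values seem to mean higher polarization but the record does not say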
E coli growth – blocks Escherichia coli growth | OD600, 23 h; active compounds read low | OD600 absorbance (no concentration beside the values) | actives 0.21% (n = 330,000);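 active = OD600 absorbance below the run mean of sample wells minus 3.6 SD, in any replicate, cut at about 0.56 in these data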;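 also: stock transfer was 300 nL into about 60 µL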
MLL AF4-AF9 inh – inhibitors of human MLL-AF4/AF9 interaction | P42568 | AlphaScreen, biotin-AF4 peptide binding to FLAG-AF9 | inhibition, % at 10 µM | actives 0.47% (n = 350,000) | AID 651704;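 active = every replicate reaching a set inhibition limit, whatever the replicate mean, cut at about 25% in these data; inconclusive = mean inhibition reaches that limit but some replicates miss it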;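 also: 0% = plate neutral control median and 100% = total signal loss; the record names both 10 and 1 µM as test concentration; the first replicate is given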
Target sequence (P42568 whole entry, looked up): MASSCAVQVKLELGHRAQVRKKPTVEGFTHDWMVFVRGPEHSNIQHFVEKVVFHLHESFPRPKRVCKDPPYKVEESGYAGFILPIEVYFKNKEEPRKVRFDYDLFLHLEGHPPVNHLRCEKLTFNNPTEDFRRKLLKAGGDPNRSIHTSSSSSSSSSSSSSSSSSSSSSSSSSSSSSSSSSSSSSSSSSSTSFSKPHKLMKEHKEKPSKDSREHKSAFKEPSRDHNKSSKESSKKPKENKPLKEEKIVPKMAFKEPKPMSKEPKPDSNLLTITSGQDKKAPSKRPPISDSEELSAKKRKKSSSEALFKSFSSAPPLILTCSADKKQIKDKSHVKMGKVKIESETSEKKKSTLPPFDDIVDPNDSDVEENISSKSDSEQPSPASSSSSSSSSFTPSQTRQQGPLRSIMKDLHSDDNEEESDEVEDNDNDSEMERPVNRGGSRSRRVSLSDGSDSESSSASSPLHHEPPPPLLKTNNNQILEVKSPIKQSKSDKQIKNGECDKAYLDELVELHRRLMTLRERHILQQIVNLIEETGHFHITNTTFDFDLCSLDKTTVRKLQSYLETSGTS
Ecoli rRNA inh – inhibits bacterial ribosomal RNA function over humanized ribosomes. E. coli WT GFP vs humanized-ribosome RFP mutants, fluorescence, 24 h; active compounds read low; DMSO median 0, no signal -100. actives 1.6% (n = 350,000). GFP signal change (wild-type ribosome), % (test concentration not listed). AID 720706;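 active = significant combined selectivity score with lowered wild-type GFP, culture density cut under 30%, mutant RFP and density less affected; inactive = any of these conditions unmet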; also: one replicate is shown; some compounds called inactive have numbers as strong as hits
ALR H2O2 inh – blocks human ALR sulfhydryl oxidase activity. purified ALR, DTT oxidation, H2O2 HRP-luminol luminescence. AID 485317. inhibition, % (concentration not given with the values). actives 3.8% (n = 290,000). P55789;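 active = mean and each replicate at 75% or more; inconclusive = only one of the two met; inactive = neither met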;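 also: stock transfer was 7.5 nL into about 7.5 µL; 0% = neutral wells and 100% = wells with inactivated enzyme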
Target sequence (P55789 whole entry, looked up): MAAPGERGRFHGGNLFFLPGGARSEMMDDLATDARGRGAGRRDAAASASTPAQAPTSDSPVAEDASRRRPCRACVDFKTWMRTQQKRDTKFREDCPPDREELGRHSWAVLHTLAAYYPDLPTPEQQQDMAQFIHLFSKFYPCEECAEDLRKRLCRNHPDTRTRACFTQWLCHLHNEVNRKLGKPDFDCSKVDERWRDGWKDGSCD
Vif A3G – inhibitors of Vif binding to APOBEC3G peptide, primary screen, biochemical, TR-FRET, GST-Vif 1-94, biotin-A3G peptide, dose response retest (AID 1117319) | actives 0.57% (n = 260,000) | TR-FRET GST-Vif / biotin-A3G peptide binding; higher % means a stronger effect; test concentration not given here; strong numbers were not always called active | inhibition, %, or IC50 in µM where a hit was titrated;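 active = above the screen mean plus three standard deviations and confirmed in dose response; inconclusive = results disagree or hit not tested in dose response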;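 also: Vif residues 1-94 fused to GST binding biotinylated APOBEC3G peptide 110-148; 0% = full assay without inhibitor and 100% = GST in place of GST-Vif; retest series ran down from 100 µM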
Ecoli rRNA inh OD600 – further read-out of Ecoli rRNA inh, marked with its call; OD600 change, %; measured here: OD600 growth;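 optical density of the mix in the first replicate; 0 = DMSO median and -100 = no signal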
Ecoli rRNA inh RFP – recorded beside Ecoli rRNA inh, whose call it bears; RFP signal change, %; measured here: RFP humanized mutant strains;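 first replicate; 0 = DMSO median and -100 = no signal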
Active calls of the source: *; i = inactive; ? = inconclusive; · = no result given. The list is partial; the hit share may differ from the screen's.

FGF22 binding	HNF4A DNA FP	E coli growth	MLL AF4-AF9 inh	Ecoli rRNA inh	Ecoli rRNA inh OD600	Ecoli rRNA inh RFP	ALR H2O2 inh	Vif A3G	Compound
i	-0.6	0.65	1.4	2	5	0.1	-7	0%	Cn1c(SCCN2CCOCC2)nc2sc3c(c2c1=O)CCCC3
·	-0.4	0.68	·	·	·	·	-3	26%	Cc1cccc(N(C(=O)CCC(=O)Nc2ccccn2)C(C(=O)NC(C)C)c2ccc(O)cc2)c1 (stereo not drawn)
i	-1.0	0.62	-2.0	3	6	-1.6	-6	7%	Cc1c(Cl)cccc1NC(=S)N1CCC(C(N)=O)(N2CCCCC2)CC1
i	·	·	15	-2	-22	27	·	·	CN1c2ccc(-c3ccccc3)cc2[C@H]2[C@H](CCN2C(=O)c2ccccc2)[C@H]1CO
·	1.9	0.73	·	·	·	·	2	>100µM*	CC(=O)Nc1ccc(S(=O)(=O)Nc2cccc(-c3nc4ccccc4o3)c2)cc1
i	-3.6	·	1.2	7	9	1.7	-16	?	NC(=O)[C@@H]1CCCNc2c(F)cc([N+](=O)[O-])cc2C(=O)N[C@@H](CO)C(=O)NCC(=O)N1
i	1.7	0.71	-0.2	-19	-28	-6.3	-7	-3%	O=C(c1ccc(CSc2ccc(Cl)cc2)cc1)N1CCOCC1
i	1.2	0.78	6.7	-3	-1	2.6	0	·	CC(=O)N1CCc2c(sc3c2c(=O)n(Cc2ccccc2)c(=O)n3CC(=O)NCC2CCCO2)C1 (stereo not drawn)
i	-0.1	·	1.6	4	-1	4.7	34	8%	O=C(CCc1ccccc1)N/N=C/c1cccc(O)c1
i	·	0.65	-0.8	-40	-43	-9.9	-2	-12%	O=C(NCCc1ccccc1)c1ccc(-c2ccccc2C(F)(F)F)o1
i	·	·	1.6	2	-2	3.5	·	·	COc1ccc(CN2[C@@H]3CNc4ccccc4[C@@H]3[C@@H]2CO)cc1
i	3.1	0.67	3.9	-15	-8	0.8	·	5%	CC[C@]12c3[nH]c4cc(CCC(=O)N(C)C)ccc4c3CCN1C(=O)[C@@H](CC(=O)NCC13CC4CC(CC(C4)C1)C3)C[C@@H]2C(=O)N1CCN(C(=O)C2CC2)CC1
i	2.8	0.72	-2.4	0	2	-1.2	-2	2%	CCc1noc(C)c1C(=O)Nc1cc(S(=O)(=O)N2CCOCC2)ccc1OC(C)C
i	1.1	0.74	0.3	12	21	10	0	·	COc1cc(NC(=O)Cc2ccccc2)ccc1NC(=O)c1ccccc1
i	·	·	1.8	0	-8	8.0	·	·	C[C@@H]1CCCCO[C@H](CN(C)CC2CCCCC2)[C@H](C)CN([C@@H](C)CO)C(=O)c2cc(NS(=O)(=O)c3ccccc3)ccc2O1
i	·	·	0.1	3	-2	-0.3	·	·	C[C@@H]1CN([C@@H](C)CO)C(=O)c2cc(NC(=O)Cn3cnnn3)ccc2O[C@@H]1CN(C)Cc1ccc(C(F)(F)F)cc1
i	1.2	0.71	-2.6	8	9	0.3	·	·	CN(C(=O)c1ccc(Br)o1)C1CCS(=O)(=O)C1 (stereo not drawn)
i	-3.5	0.66	1.1	-8	-19	-6.5	-3	11%	CN(c1ccc(C(=O)NCCSCc2ccc(Cl)cc2)cc1)S(=O)(=O)c1ccccc1
·	1.3	0.66	·	·	·	·	·	0%	Cc1ccc(CSc2ncnc3c2cnn3Cc2ccccc2)cc1
·	2.6	0.71	·	·	·	·	2	12%	CCCOc1ccc(C2NC(=O)NC(c3ccccc3)=C2C(C)=O)cc1OCC (stereo not drawn)
i	0.2	0.64	-4.0	12	23	3.4	·	·	O=C(CCc1ccccc1)NC(c1cccs1)c1cc(Cl)c2cccnc2c1O (stereo not drawn)
·	-0.9	0.67	·	·	·	·	-5	4%	CCOc1ncccc1C(=O)OCC(=O)N1CC(=O)Nc2ccccc21
i	6.0	·	3.5	5	12	2.6	·	2%	CN(C)c1ccc(C=NNC(=O)c2cccc3ccccc23)c(Cl)c1
i	2.7	0.66	-1.3	2	4	-2.5	·	·	COc1ccccc1N(CC(O)CN1CCOCC1)S(=O)(=O)c1ccccc1 (stereo not drawn)
i	2.2	0.69	-0.5	-15	-19	-0.8	-10	·	COc1ccc(-c2noc(C3CCCN(C(=O)c4ccc(F)cc4)C3)n2)cc1 (stereo not drawn)
i	2.5	0.57	-0.9	-6	-6	-1.4	-6	-7%	N#Cc1c(Cl)cccc1N1CCCC1
·	-3.2	0.74	·	·	·	·	5	4%	Cc1nnc(NC(=O)c2c(-c3ccccc3)noc2C)s1
·	4.0	0.72	·	·	·	·	-3	-8%	COc1ccc2oc(C(=O)OCC(=O)Nc3ccccc3OC)c(C)c2c1
·	1.2	0.68	·	·	·	·	37	3%	O=C(CSc1nc2ccccc2[nH]1)N1CCN(c2ccc(F)cc2)CC1
i	1.1	0.67	0.1	-1	-1	-2.5	0	0%	O=C1CCC(C(=O)N2CCCCO2)CN1CCc1ccc(Cl)cc1 (stereo not drawn)
i	1.9	0.66	4.0	-1	-3	-1.1	-5	·	CC(C(=O)C12CC3CC(CC(C3)C1)C2)N1CCOCC1 (stereo not drawn)
·	-2.6	0.66	·	·	·	·	-18	1%	O=C(NCCc1ccc(Cl)cc1)Nc1cccc(Cl)c1
·	-0.4	0.73	·	·	·	·	9	-8%	Cc1cc(C(=O)Nc2cccc(C(=O)O)c2)c(C)o1
i	-1.4	·	0.4	7	7	2.3	1	·	COc1ccc(OCC(=O)Nc2cc(OC)ccc2N2CCCCC2)cc1
·	4.3	0.71	·	·	·	·	96*	12%	S=c1[nH]nc(-c2ccncc2)n1Cc1ccco1
i	-2.7	0.61	0.2	-14	-16	-4.6	·	·	CCOC(=O)C1(Cc2ccccc2C)CCCN(S(=O)(=O)CC)C1 (stereo not drawn)
i	3.5	·	-0.7	-5	-9	-4.3	·	2%	COc1ccc(Nc2nnc(SCC(=O)N(CC(C)C)C3CCS(=O)(=O)C3)s2)cc1 (stereo not drawn)
·	0.0	0.7	·	·	·	·	6	21%	O=C(NCc1cccnc1)c1ccc(CS(=O)(=O)Cc2ccc(Cl)cc2)o1
i	-1.6	0.7	-4.3	0	2	-1.5	-6	·	Cc1ccc(S(=O)(=O)N2CCN(c3ncccn3)CC2)c(C)c1
·	-3.0	0.68	·	-3	-13	1.7	68	0%	Cc1c(C(=O)NCCCN2CCOCC2)sc2nc(-c3ccc(F)cc3)cn12

Filtered by structure: the entries above with a CF3 group.
FGF22 binding	HNF4A DNA FP	E coli growth	MLL AF4-AF9 inh	Ecoli rRNA inh	Ecoli rRNA inh OD600	Ecoli rRNA inh RFP	ALR H2O2 inh	Vif A3G	Compound
i	·	0.65	-0.8	-40	-43	-9.9	-2	-12%	O=C(NCCc1ccccc1)c1ccc(-c2ccccc2C(F)(F)F)o1
i	·	·	0.1	3	-2	-0.3	·	·	C[C@@H]1CN([C@@H](C)CO)C(=O)c2cc(NC(=O)Cn3cnnn3)ccc2O[C@@H]1CN(C)Cc1ccc(C(F)(F)F)cc1

Next section
FGF22 binding	HNF4A DNA FP	E coli growth	MLL AF4-AF9 inh	Ecoli rRNA inh	Ecoli rRNA inh OD600	Ecoli rRNA inh RFP	ALR H2O2 inh	Vif A3G	Compound
·	4.0	0.68	·	·	·	·	-42	4%	COc1ccc(C2c3c(ncn(CCN4CCOCC4)c3=N)Oc3ccc4ccccc4c32)cc1 (stereo not drawn)
i	·	·	7.9	-41	-64	5.7	·	·	C[C@H](CO)N1C[C@H](C)[C@H](CN(C)Cc2ccc3c(c2)OCO3)Oc2c(NC(=O)Nc3ccc(C(F)(F)F)cc3)cccc2C1=O
i	-0.9	0.67	-3.8	-1	-6	0.5	·	·	Nc1c(N(CCCO)C(=O)CCCN2C(=O)c3cccc4cccc(c34)C2=O)c(=O)[nH]c(=O)n1Cc1ccccc1
i	·	·	2.2	-1	-18	2.5	·	·	Cc1ccc(S(=O)(=O)Nc2ccc3c(c2)CC(=O)N([C@H](C)CO)C[C@@H](C)[C@@H](CN(C)Cc2ccccc2)O3)cc1
·	2.2	0.68	-2.4	5	1	-1.5	54	30%	CCc1nnc(NC(=O)CSc2nnc(CNc3ccc(OC)cc3)n2CC)s1
i	·	·	-1.0	8	3	-3.3	·	·	COc1cccc(S(=O)(=O)N2C[C@H](O)COC[C@@H]3O[C@H](CC(=O)N4CCOCC4)CC[C@H]32)c1
i	·	·	-0.6	4	3	0.2	·	·	Cc1noc(C)c1NC(=O)Nc1ccc2c(c1)C(=O)N(C)[C@H]1CC[C@H](CC(=O)N(C)C)O[C@@H]1CO2
·	1.9	0.66	·	·	·	·	-1	6%	OCCCN=c1cc(-c2ccccc2)oc2ccc(Cl)cc12
·	0.3	0.75	·	·	·	·	-11	6%	O=C1c2ccccc2NC(c2ccc3c(c2)OCCO3)N1c1ccc2c(c1)OCCO2 (stereo not drawn)
i	·	·	3.7	-4	-2	0.1	·	·	C[C@H]1CN([C@@H](C)CO)C(=O)c2cccc(NC(=O)Nc3ccc4c(c3)OCO4)c2O[C@@H]1CN(C)Cc1ccc2c(c1)OCO2
i	·	·	7.0	-2	2	-1.4	·	·	C[C@H](CO)N1C[C@H](C)[C@H](CN(C)C(=O)Nc2ccc3c(c2)OCO3)Oc2ncc(-c3cccc(F)c3)cc2C1=O
i	·	·	4.5	5	2	1.9	·	·	COc1ccc(NC(=O)N(C)C[C@@H]2Oc3cc(-c4ccc(C)cc4)ccc3S(=O)(=O)N([C@@H](C)CO)C[C@@H]2C)cc1
i	·	·	1.6	0	2	-2.2	·	·	CO[C@@H]1CN(C)C(=O)c2ccc(NC(=O)NC(C)C)cc2OC[C@H](C)N(Cc2ccc(-c3ccccn3)cc2)C[C@@H]1C
i	2.7	0.64	1.8	-4	-7	-1.8	12	·	O=S(=O)(c1ccc(NCc2ccccc2)cc1)N1CCOCC1
·	2.8	0.72	·	·	·	·	7	6%	COCCOC(=O)c1c(NC(=O)CN2CCCc3ccccc32)sc(C(N)=O)c1C
i	-0.2	·	0.6	18	45	-0.6	·	-4%	COc1ccc(CCN2CC(=O)NC(=O)C2)cc1OC
i	6.2	0.61	-1.4	2	5	-0.5	·	-2%	CNC(=O)c1c(NC(=O)c2ccc3ncsc3c2)sc(C)c1C
·	0.0	0.71	·	·	·	·	-4	8%	CC1CCN(C(c2ccccc2)c2nnnn2C(C)(C)C)CC1 (stereo not drawn)
i	-1.8	0.71	-0.8	-6	-4	-1.0	·	-1%	CO[C@H]1CC[C@@]2(C)[C@@H](CC[C@@H]3[C@@H]2CC[C@@]2(C)[C@H]3C[C@H](C(=O)O)O[C@]23CCCO3)C1
·	4.8	0.67	·	·	·	·	-24	-2%	CCc1cccc(CC)c1NC(=O)c1cccc(NC(=O)c2ccccc2)c1
i	6.8	0.68	-54	6	-4	-0.3	-28	21%	COC(=O)CCCC1=CC2=CC(=O)C(C)(OC(=O)c3cccs3)C(=O)C2=CN1CCCOC(C)C (stereo not drawn)
i	2.8	0.73	1.5	0	-6	1.1	5	·	O=C(CCNC(=O)C1CCN(S(=O)(=O)c2ccccc2)CC1)NCc1cccc(Cl)c1
i	2.9	0.69	2.8	-2	-11	1.0	-4	·	NS(=O)(=O)c1cccc(NC(=O)c2ccccc2NS(=O)(=O)c2ccc(F)cc2)c1
i	2.2	·	4.2	-9	-20	1.1	1	-2%	COc1ccc(Cl)cc1C(=O)NNC(=O)c1[nH]c(C)c(C(C)=O)c1C
i	2.5	0.7	-3.7	6	5	0.3	·	·	O=C(CN1C(=O)c2cccc3cccc1c23)NC1CCCCC1
i	·	·	-1.2	1	-1	2.4	·	·	C[C@H](NC(=O)C[C@@H]1C[C@H]2c3cc(N(C)C)ccc3O[C@H]2[C@@H](CO)O1)c1ccccc1
